ClpP mod = qHTS Assay for Activators of ClpP; Potency, µM (doses to about 57.5 µM), for the others: at the highest dose activity change, negative = active; ATP-dependent Clp protease proteolytic subunit (Bacillus subtilis (strain 168)), P80244; actives 1.9% (n = 340,000); purified B. subtilis ClpP, FRET peptide cleavage, 20 min; active = well fitted falling curve with a large enough effect; inconclusive = small, poorly fitted or top-dose-only effect; inactive = no such curve, though single readings can be large or run the other way; further: potency means the concentration at half of the fitted maximal effect; the source files actives as falling curves though it sought activators and does not explain the sign; nearly all actives have a fitted effect of over 65% in size; many hits overshoot -100%
Target sequence (P80244 whole entry, looked up): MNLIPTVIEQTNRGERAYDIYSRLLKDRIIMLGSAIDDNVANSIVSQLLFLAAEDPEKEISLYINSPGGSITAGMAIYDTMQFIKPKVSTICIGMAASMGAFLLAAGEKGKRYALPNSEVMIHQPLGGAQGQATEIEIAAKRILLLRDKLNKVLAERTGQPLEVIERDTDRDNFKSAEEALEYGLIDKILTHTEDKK
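ClpP 10 microg/mL final, pH 8 Tris/KCl buffer with BSA, glycerol, Tween-20; compound pinned in; FRET-FV substrate; RT 20 min; Ex320/Em430; ΔFRET vs ADEP 5.8 microM, DMSO, no enzyme.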
Sfp PPTase inh = blocks B. subtilis Sfp PPTase activity. actives 3.5% (n = 310,000). Biochemical Sfp PPTase activity, qHTS. Q9F4F7. Potency, µM, without a hit: max response, negative = inhibition, most hits filed as inhibitors; active means well fitted inhibition curve with a large enough effect; inconclusive means small, poorly fitted or top-dose-only effect, or another doubt; inactive means no such curve, though single readings can be large or run the other way;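 further: the enzyme is Sfp with the accession as filed and its product quenches rhodamine fluorescence; potency means the concentration at half of the fitted maximal effect; 0% = enzyme reaction without inhibitor and -100% = no enzyme wells; top concentration of the series not given in the record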
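Sfp 15 nM + cpd, 15 min RT; start w/ rhodamine-CoA 5 uM, BHQ-2-YbbR 12.5 uM (final); 50 mM Hepes pH 7.6, 10 mM MgCl2, 0.01% NP-40, 0.01% BSA; read 525/598 nm at 0 and 30 min.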
Menin-MLL FL inh = menin-MLL binding inhibition, fluorescein peptide; Fluorescence polarization, fluorescein-MLL peptide displacement from menin; FP activity change, % at 61.4 µM; 290,000 tested, under 10 active; AID 1766; inconclusive = falling polarisation curve, or a change in total fluorescence; inactive = total fluorescence flat and polarisation flat or rising; no compound was filed as active; the % refers to the polarisation; negative = inhibition;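 further: % of control where 0% means no effect; inhibitors lower the polarisation; unlabelled MLL peptide was the positive control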
gsp antagonist = antagonizes gsp, the McCune-Albright syndrome mutation. AID 624288. actives 0.4% (n = 340,000). Potency, µM (highest dose often 76.9 µM), without a hit: top-dose activity change, negative = inhibition, most hits filed as inhibitors. gsp-mutant cells, cAMP HTRF, 30 min; control for the full effect not named in the record; active = falling curve of any shape with a large fitted effect; inconclusive = falling curve, mostly with a smaller effect; inactive = flat or rising curve; cell line not stated here;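 further: intracellular cAMP measured with PDE inhibitor Ro 20-1724 present during compound exposure; potency means the concentration at half of the fitted maximal effect; on the % scale 0 is the no-effect control and ±100 the full control effect; nearly all actives have a fitted effect of over 65% in size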
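Measurement of cellular cAMP by homogeneous time-resolved fluorescence following a 30 min compound exposure at 37C. The PDE inhibitor […] was present throughout; the assay buffer was DPBS with 0.05% BSA and 0.005% Tween 20.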
D2 ag = human D2 receptor agonism in beta-arrestin assay; AID 624465; DiscoveRx PathHunter D2 beta-arrestin, luminescence, 90 min; 100% = 57 uM dopamine signal; P14416; activation, % (no concentration beside the values); actives 0.084% (n = 360,000); in the data active = activation above about 40%; inconclusive = about 15% to 40%; inactive = below about 15%; further: compound concentration not given in the record; the text of the record calls up to 30% inactive
Target sequence (P14416 whole entry, looked up): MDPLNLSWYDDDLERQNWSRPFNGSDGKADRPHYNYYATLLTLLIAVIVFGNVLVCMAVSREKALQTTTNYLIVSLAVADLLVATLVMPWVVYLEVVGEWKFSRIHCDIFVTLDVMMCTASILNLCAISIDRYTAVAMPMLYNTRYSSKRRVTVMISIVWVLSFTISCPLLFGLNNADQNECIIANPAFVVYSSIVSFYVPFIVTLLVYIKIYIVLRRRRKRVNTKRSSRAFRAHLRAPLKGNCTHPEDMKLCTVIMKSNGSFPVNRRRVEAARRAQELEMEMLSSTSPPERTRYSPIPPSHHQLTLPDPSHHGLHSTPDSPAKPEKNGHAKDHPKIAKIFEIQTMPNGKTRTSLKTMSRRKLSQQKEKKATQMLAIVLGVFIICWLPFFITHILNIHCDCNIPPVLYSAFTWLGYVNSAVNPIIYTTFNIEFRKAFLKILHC
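DiscoveRx PathHunter D2 beta-arrestin cells (2,100/well) attached overnight, then compound-stimulated 90 min at 37 C in HBSS/10 mM HEPES/0.1% Tween-20 buffer; beta-galactosidase complementation read by luminescence after 1 h at ambient temperature. Dopamine 57 uM final (EC100) as control.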
PINK1 modulator = changes PINK1 expression; PINK1 immunofluorescence, high-content cytometry, 24 h; Potency, µM (highest dose often 76.6 µM), for the others: at the top dose activation (PINK1 increase), actives largely listed as activators; actives 0.2% (n = 410,000); AID 624263; active = well fitted activation curve with a large enough effect; inconclusive = small, poorly fitted or top-dose-only effect; inactive = flat fitted curve, though single readings scatter; cell line not stated here;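 further: potency means the concentration at half of the fitted maximal effect; % of control where 0% means no effect; nearly all actives have a fitted effect of over 65% in size; a mitochondrial uncoupler was the plate control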
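Stable cell line, 250 cells/well, 12 h attachment; compounds pinned at 5 concentrations, 24 h; CCCP control. Fixed with nuclear dye, primary antibodies 12 h at 10 degrees C, secondary plus cell stain; laser-scanning cytometer read.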
gsp ag = agonists of gsp mutant (McCune-Albright syndrome); gsp mutant cells, cAMP HTRF, 30 min; control for the full effect not named in the record; Potency, µM (titrated, usually from 76.9 µM), inactives show at the top dose activation (cAMP increase), actives largely listed as activators; actives 0.13% (n = 340,000); AID 624287; active = well fitted activation curve with a large enough effect; inconclusive = small, poorly fitted or top-dose-only effect, or another doubt; inactive = no such curve, though single readings can be large or run the other way; cell line not stated here;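 further: phosphodiesterase inhibitor Ro 20-1724 added with compounds to block cAMP breakdown; potency means the concentration at half of the fitted maximal effect; nearly all actives have a fitted effect of over 60% in size; about a fifth of the inactives were tested at one dose only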
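Cells in DMEM/10% FBS with G418 were pretreated with compounds in DMSO plus […] (300 uM stock) for 30 min at 37C. cAMP was measured by HTRF (cAMP-d2 plus anti-cAMP antibody-K) after 30 min at room temperature.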
An asterisk follows results filed as active; ? = inconclusive; . = no result given; & = joins results of further samples; [ ] = remark or other dose.

SMILES	ClpP mod	Sfp PPTase inh	Menin-MLL FL inh	gsp antagonist	D2 ag	PINK1 modulator	gsp ag
Cc1ccc(CN2C(=O)CCC2C(=O)NCc2ccccc2Cl)cc1 (centres undefined)	0.7%	11%	0.5	4%	-3.6	1.4%	19%
Cc1ccc(-c2nc3c4ccccc4ccn3c2CN2CCCCC2)cc1	3.4%	-18%	-2.7	-8%	-3.0	?	-20%
COc1ccc(S(=O)(=O)N2CCOCC2)cc1C(=O)N1CCCC1	1.1%	11%	.	8%	0.8	0.5%	-24%
Cc1ccc(NC(=O)CN2CCC3(O)CCCCC3C2c2ccc3c(c2)OCO3)c(C)c1 (centres undefined)	-0.5%	0%	2.9	-11%	-0.9	-8.0%[38.3 µM]	-42%
CCOc1ccc(S(=O)(=O)N2CCC(C(=O)Nc3ccc(C)c(S(=O)(=O)N4CCOCC4)c3)CC2)cc1	1.8%	.	.	-9%	-0.9	4.1%	-14%
O=C(CCC(=O)c1ccc(F)cc1)Nc1cccc(Br)c1	-1.4%	2%	?	11%	-9.2	1.4%	-3%
C=CCn1c(SCC(=O)NC(=O)Cc2ccccc2)nnc1-c1ccccc1F	.	.	.	0%	-3.1	-2.6%	18%
CN(C)c1cc(-c2cccc([N+](=O)[O-])c2)oc(=O)c1Cl	.	-1%	3.6	-8%	-1.2	-1.0%	0%[15.4 µM]
O=C(/C=C/Sc1ncn[nH]1)c1ccc(Cl)cc1	-1.1%	?	4.8	8%	-3.8	-1.1%	-18%
Cc1onc(-c2c(Cl)cccc2Cl)c1C(=O)N=C(N)N1CC(C)OC(C)C1 (centres undefined)	.	4%	2.2	-11%	1.7	1.7%	9%
C=CCn1cccc(C(=O)Nc2ccc(OC)c(Cl)c2)c1=O	.	1%	-4.5	-13%	4.2	7.6%	?
CC(=O)C1=C(O)C(=O)N(c2ccc(C(=O)O)cc2)C1c1ccc([N+](=O)[O-])cc1 (centres undefined)	0.7%	10%	2.8	6%	2.0	-0.5%	24%
Cc1nc(NCCc2ccccc2)sc1C(=O)N(C)C	.	?	0.2	0%	3.3	3.4%	1%[15.4 µM]
Cc1ccc(NC(=O)CSc2ccc(-c3ccccn3)nn2)cc1F	1.6%&-0.2%	4%	.	-3%	-4.0	8.2%&1.3%	-31%
CC1(C)OC(=O)N(c2cccnc2)C1(C)O (centres undefined)	-2.6%	12%	-8.0	4%	0.1	-1.2%	-36%[inhibitor]
O=C(c1ccc(OC2CCN(Cc3cccc(F)c3)CC2)cc1)N1CCCCC1	3.8%	14%	.	10%	-4.4	1.9%	-1%
CN1CCN(c2ncc3ncc(=O)n(C[C@H]4CCCO4)c3n2)CC1	.	14%	2.7	.	.	1.5%	.
O=C(O)c1ccc(Oc2ccccc2)o1	1.0%	13%	-1.6	-6%	-3.4	2.7%	-3%
Cc1ccc(NC(=O)CN2CCN(CCN=CC3=C(O)CC(C)(C)CC3=O)CC2)cc1	1.8%	7%	-0.2	4%	-2.6	1.3%	-1%
CCC(=O)Nc1nc(C)c(C(=O)N2CCCCC2)s1	-0.1%	22%	3.6	1%	-2.2	.	-12%
COc1ccc(N2CCN(S(=O)(=O)CCNC(=O)C3CC(=O)N(c4ccccc4)C3)CC2)cc1 (centres undefined)	1.1%&-2.3%	7%	-5.6	9%	6.2	-1.1%&-1.7%	-41%[inhibitor]
Cc1cc(NC(=O)CC(C)(C)C)nc2c1c(=O)oc1ccccc12	-3.7%	-2%	1.3	7%	-1.0	.	29%
c1ccc(CN2CCN(c3nc4ccccc4c4ccccc34)CC2)cc1	?	-12%	3.4	-19%	-2.1	4.2%	-33%
CCOCCOc1nc2c(c(=O)n(C)c(=O)n2C)n1CCc1ccccc1	0.8%	1%	3.0	-6%	-2.7	-2.3%	-2%
Cc1cccc(C)c1OCCOC(=O)c1ccc(S(=O)(=O)N2CCCC2)cc1	-1.3%	.	.	.	-1.2	0.7%	5%
CC(C)C(OC(=O)c1nsc(Cl)c1Cl)C(=O)NCc1ccc2c(c1)OCO2 (centres undefined)	-1.8%	-8%	5.4	-23%	-2.9	13%[38.3 µM]	-10%
COc1ccc(C(=O)N2CCC(C(=O)c3c(C)cc(C)cc3C)CC2)cc1	.	-1%	-0.6	-21%	0.1	1.6%	4%[15.4 µM]
CCCCn1c(=O)c(C(=O)c2ccccc2)nc2ccccc21	0.3%	-8%	2.8	-8%	-1.4	8.3%[38.3 µM]	-6%
Cc1ccc(S(=O)(=O)NC2CCCc3ccccc32)cc1C (centres undefined)	-0.5%	0%	3.0	?	0.5	-0.2%	25%
COCCn1c(SCC(=O)Nc2c(C)n(C)n(-c3ccccc3)c2=O)nnc1-c1ccncc1	1.6%	.	.	9%	-3.0	1.5%	?
CCOc1ccc(Nc2cc(=O)n(C)c(=O)n2C)cc1	-2.7%	11%	-2.2	1%	0.0	0.0%	-1%
O=C(NCCCN1CCCC1=O)c1cccc(S(=O)(=O)N2CCCCC2)c1	0.2%	.	.	7%	7.6	-0.1%	?
COc1ccc(-c2cc(=O)[nH]c(NCc3ccccc3)n2)cc1	14%	-12%	1.1	-9%	2.3	5.1%[38.3 µM]	-74%[inhibitor]
O=S(=O)(Nc1cccc(-c2cn3c(n2)SCC3)c1)c1ccc(F)cc1F	1.2%	-6%	.	-16%	-1.0	1.9%	5%[15.4 µM]
C=CCNC(=S)N/N=C/c1ccccc1OCCOc1ccccc1	.	13%	-0.2	7%	-0.3	9.4%	-46%[inhibitor]
O=C(Nc1ccc2c(c1)OCO2)C1Cc2c(-c3cccnc3)ccnc2O1 (centres undefined)	1.2%	.	.	.	-3.1	1.7%	.
CCOc1ccc2[nH]c3c(N4CCC5(CC4)OCCO5)ncnc3c2c1	32µM*	?	2.6	-10%	-1.2	5.1%	9%[15.4 µM]
O=C(NNC(=O)C1CC(c2cccnc2)=NO1)Nc1ccccc1F (centres undefined)	-2.5%	23%	-4.7	9%	-3.2	-1.1%	5%
CC1(C)CC(=O)C2=C(C1)c1c(ccc3ccccc13)NC2c1ccc(C(=O)O)cc1 (centres undefined)	.	5%	3.8	-24%	-3.3	2.9%	-1%
COc1ccc(-c2nnn(CC(=O)Nc3ccc4c(c3)OCCO4)n2)cc1OC	-4.6%	.	.	14%	0.1	6.9%	?
O=C(Cc1ccc(Br)cc1)N1CCN(C(=O)c2ccco2)CC1	.	2%	3.5	2%	-0.4	-1.2%	5%
COc1cccc(NC(=O)N2CCCC2C(=O)Nc2ccc3c(c2)OCCO3)c1 (centres undefined)	-0.4%	16%	1.8	5%	-3.0	0.2%	?
COC(=O)COc1ccc(NC(=O)c2ccco2)cc1	.	3%	-3.5	-22%	1.4	-3.9%	37%[15.4 µM]
CCCCn1ccc(=O)c2c(C(F)(F)F)nccc21	-3.7%	8%	1.1	3%	-2.9	-1.0%	27%
Cc1ccc(OCCCCn2ccnc2C)c(C)c1	-1.3%	?	0.2	-6%	2.5	1.9%	23%[15.4 µM]

Sorted by formula weight (lowest first): some entries from above.
SMILES	ClpP mod	Sfp PPTase inh	Menin-MLL FL inh	gsp antagonist	D2 ag	PINK1 modulator	gsp ag
CCCCn1ccc(=O)c2c(C(F)(F)F)nccc21	-3.7%	8%	1.1	3%	-2.9	-1.0%	27%
CCOc1ccc(Nc2cc(=O)n(C)c(=O)n2C)cc1	-2.7%	11%	-2.2	1%	0.0	0.0%	-1%
O=C(Cc1ccc(Br)cc1)N1CCN(C(=O)c2ccco2)CC1	.	2%	3.5	2%	-0.4	-1.2%	5%

New compounds follow
SMILES	ClpP mod	Sfp PPTase inh	Menin-MLL FL inh	gsp antagonist	D2 ag	PINK1 modulator	gsp ag
CC(=O)N(c1ccccc1C)C1CCCC1	-16%	8%	6.5	14%	-1.8	1.8%	-3%[15.4 µM]
CC(C)(C)c1ccc(C(=O)NCCC(=O)N2CCN(c3ncccn3)CC2)cc1	0.4%	14%	4.0	0%	-3.0	1.0%	?
Cc1nn(-c2ccccc2)c(-n2cccc2)c1C(=O)O	2.3%	-3%	4.3	2%	-0.7	-1.2%	-4%[15.4 µM]
O=C(Oc1ccc2c(=O)c(Oc3ccc4ccccc4c3)coc2c1)c1ccco1	6.1%	-1%	3.3	-20%	0.3	1.1%	-8%
C=CCC(O)(CC=C)C(C)N (centres undefined)	-0.4%	13%	-2.5	9%	-2.5	0.9%	-30%
COc1ccc(NC(=O)C2CCCN2C(=O)Nc2ccccc2)cc1OC (centres undefined)	-0.6%	13%	-2.3	8%	0.4	-0.8%	-6%
CN(NC(=O)/C=C/C(=O)O)c1ncc(C(F)(F)F)cc1Cl	.	56µM*	2.0	10%	-4.7	3.7%	-18%
CCN1C(=O)[C@H]2[C@@H](c3ccc(OC)cc3)N[C@]3(CCCN(Cc4ccco4)C3=O)[C@H]2C1=O	-1.4%	.	.	.	-8.2	1.9%	-39%[inhibitor]
Cc1cccc(Cn2c(SCCN3CCCCC3)nc3c2c(=O)[nH]c(=O)n3C)c1	-2.3%	9%	3.7	6%	-1.5	0.1%	-16%
COc1ccc(C(=O)OCC(=O)c2ccc3c(c2)NC(=O)CO3)cc1S(=O)(=O)N1CCOCC1	.	.	.	-7%	8.5	0.5%	17%
CC(C)(C)Cc1nc2ccccc2n1CCc1ccccc1	5.3%	2%	-1.7	?	-2.9	-1.7%	0%
NC(=O)c1cccc(-c2coc3c(C(=O)NCc4cccnc4)cccc23)c1	-17%	.	.	.	7.8	0.7%	.
COCCNC(=O)c1nn(-c2cc(OC)cc(OC)c2)c(=O)c2ccccc12	0.9%	9%	-4.2	6%	-3.7	0.0%	-1%
CCCCCCCCC(=O)Nc1cc(C)ccc1OC	0.1%	6%	-0.4	-15%	-3.6	1.6%	-21%
